YjeE inh: qHTS Assay for Inhibitors of YjeE | 71,000 compounds, 0.05% hits | purified YjeE, fluorescence polarisation of a bound ADP probe | Potency, µM | tRNA threonylcarbamoyladenosine biosynthesis protein TsaE (Escherichia coli (strain …; active = well fitted falling curve; inconclusive = weaker or top-dose-only fall, or a rising curve; inactive = flat or poorly fitted curve;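 further: top concentration of the series not given in the record; excess ADP was the control for the full effect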
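Fluorescence polarization of a BODIPY Texas Red–ADP probe (2 uM) bound to purified YjeE (10 uM) was read after 15 min room-temperature incubation with compounds. Loss of polarization marks inhibitors; ADP serves as titrated control.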
PK Bst: Pyruvate Kinase | partly purified Bacillus stearothermophilus pyruvate kinase, luminescence ATP production; ribose 5-phosphate activator present at AC10 | Potency, µM | 51,000 compounds, 1.2% hits | AID 361, 2006; in the data active means potency below about 11 µM; inconclusive means mostly about 12 µM to 25 µM; inactive means weaker than that;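 the screen sought inhibitors and activators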;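 further: potency means the concentration at half of the fitted maximal effect; scaled between full activation by ribose 5 phosphate and full inhibition by luteolin; about four in five hits inhibit and the cells do not say which; series up to 57 µM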
Active calls of the source: *; i = inactive; ? = inconclusive; . = no result given. Only part of the results is shown (hit frequency here may not be typical).

YjeE inh	PK Bst	SMILES
i	>57	CC(C)(C)c1nnc(NC(=O)CN2C(=O)C3C4C=CC(C4)C3C2=O)s1 (configuration not stated)
.	>11	Cc1ccc(-n2ncc3c(NCc4cccnc4)ncnc32)c(C)c1
i	.	CCn1cc(Cl)c(C(=O)Nc2nc3ccccc3n2CCN2CCCCC2)n1
i	.	CC1(C)CC(N2CN(C3CCCCC3)CC2=O)CC(C)(C)N1
i	>57	COc1cc(CC(=O)Oc2ccc3c(c2)OCO3)cc(OC)c1OC
i	>57	CCC(C)(C(=O)Nc1ccc2c(c1)OCCO2)N(C(C)=O)c1ccc(C(N)=O)cc1 (configuration not stated)
i	>57	COC(=O)c1sc(NC(=O)C2CCCO2)c(C(=O)OC)c1C (configuration not stated)
i	>57	O=C(NCCNC(=O)C(F)(F)F)c1ccncc1
.	>26	Cc1cc(C)nc(N(C#N)CN2C(=O)c3ccccc3C2=O)n1
i	>57	CC1=C(C(N)=O)C(c2cccc(OCc3ccccc3)c2)n2nnnc2N1 (configuration not stated)
i	>57	CCOc1ccc(CCNC(=O)CCc2nc(-c3ccc(OC)cc3)no2)cc1OCC
i	.	Cc1cccc(-n2ncc3c(N)ncnc32)c1
i	.	O=C1C(Cl)=C(Nc2ccccc2O)C(=O)N1c1ccccc1
i	>57	O=C(CCN1C(=O)C2C3C=CC(C3)C2C1=O)N1CCN(c2ccccc2Cl)CC1 (configuration not stated)
i	.	COc1ccc(Cl)cc1N1C(=O)C2CCCN2C1c1ccc(F)cc1 (configuration not stated)

Single records (already shown). Order of values: YjeE inh	PK Bst
Record of Cc1cc(C)nc(N(C#N)CN2C(=O)c3ccccc3C2=O)n1 = .	>26
Record of Cc1ccc(-n2ncc3c(NCc4cccnc4)ncnc32)c(C)c1 = .	>11

A portion from the list above:
YjeE inh	PK Bst	SMILES
i	.	O=C1C(Cl)=C(Nc2ccccc2O)C(=O)N1c1ccccc1
i	>57	O=C(CCN1C(=O)C2C3C=CC(C3)C2C1=O)N1CCN(c2ccccc2Cl)CC1 (configuration not stated)
i	.	COc1ccc(Cl)cc1N1C(=O)C2CCCN2C1c1ccc(F)cc1 (configuration not stated)

(more compounds)
YjeE inh	PK Bst	SMILES
i	>57	CCCC(c1nnnn1Cc1cccs1)N1CCN(C2CCCC2)CC1 (configuration not stated)
i	.	COc1ccc(-n2c(=O)c(C)nc3cnc(N(C)C)nc32)cc1
i	>57	Cc1ccc(CCNC(=O)c2nnn(-c3cccc(C)c3)c2N)cc1
i	.	O=C1CC(c2ccco2)CC(O)=C1C=NCCN1CCNCC1 (configuration not stated)
i	>57	CC(C)C(c1nnnn1Cc1ccccc1)N1CCc2ccccc2C1 (configuration not stated)
i	>57	CC(=O)Nc1cc(-c2nn(CC(=O)N3CCCCC3)c(=O)c3ccccc23)ccc1N1CCOCC1
i	>57	O=C(CCNC(=O)Cn1ccc2ccccc2c1=O)NCCCN1CCN(c2ccccc2F)CC1
i	>57	O=C(C1CCC1)N1CCc2cc(S(=O)(=O)Nc3ccc4c(c3)OCO4)ccc21
i	>57	O=C(CCCC(=O)OCC1CCCO1)OCC1CCCO1 (configuration not stated)
i	>57	Cc1ccnc2nc(C(=O)N3CCN(S(=O)(=O)c4ccccc4)CC3)nn12
i	>57	c1ccc(Cn2nnnc2CN2CCN(Cc3ccc4c(c3)OCO4)CC2)cc1
i	.	c1ccc(SCc2nc(-c3cccnc3)no2)cc1
i	.	COc1ccc(Nc2cc(C)nc3nc(C)nn23)cc1Cl
i	>57	C=COCCNC(=O)C1CC(=O)N(c2ccc(C)cc2)C1 (configuration not stated)
i	>57	COc1ccc(C(=O)n2nc(-c3ccc(C)cc3)nc2N)cc1OC
i	>57	O=C(CN1CCOCC1)Nc1ncc(Br)cc1Br
i	>57	COc1ccc(CNC(=O)c2cc(-c3ccco3)on2)cc1
i	.	Cc1cc(C)c2c(c1)-c1c(ssc1=S)C(C)(C)N2C(=O)CSc1nncn1C
i	>57	COC(=O)Cc1c(C)c2ccc(OCC(=O)N3CCOCC3)cc2oc1=O
i	>57	CC(C)c1ccccc1N1CC(C(=O)O)CC1=O (configuration not stated)
i	>11	O=C(NCCN1CCN(c2ccccc2F)CC1)c1cccn2c(=O)c3ccccc3nc12
i	.	COc1nc(C)ccc1-c1noc(-c2ccncc2)n1
i	>57	O=C(CN1CCc2ccccc2C1)Nc1ccccc1N1CCCCCC1
i	.	CN(C1CCCCC1)S(=O)(=O)c1ccc2c(c1)c(=O)c(C(=O)NCCN1CCCC1)cn2C
i	>57	N=c1sc2ccccc2n1-c1ccccc1
i	>57	COc1ccc(C)cc1NC(=O)C1CC(=O)N(Cc2ccco2)C1 (configuration not stated)
i	>57	COc1cc2c(=O)n(-c3ccc(C)cc3)c(=O)n(CC(=O)c3ccc4c(c3)OCO4)c2cc1OC
i	>57	COCCn1c(SCC(=O)Nc2nnc(C)s2)nnc1-c1c[nH]c2ccccc12
i	>57	CCS(=O)(=O)CCSc1nc2ccccc2o1
i	.	O=C(Oc1ccc2ccccc2c1)c1ccco1

Next section (four carried over from the part before).
YjeE inh	PK Bst	SMILES
i	>57	COc1cc2c(=O)n(-c3ccc(C)cc3)c(=O)n(CC(=O)c3ccc4c(c3)OCO4)c2cc1OC
i	>57	COCCn1c(SCC(=O)Nc2nnc(C)s2)nnc1-c1c[nH]c2ccccc12
i	>57	CCS(=O)(=O)CCSc1nc2ccccc2o1
i	.	O=C(Oc1ccc2ccccc2c1)c1ccco1
i	i	O=C(Nc1nc(-c2ccncc2)cs1)c1ccco1
i	.	CCOc1ccc(C(=O)Nc2cc(C)on2)cc1
i	>57	O=C(CSc1ccc2c(c1)OCCO2)NCc1ccco1
i	>57	O=C(Nc1nc2ccc(S(=O)(=O)N3CCCCC3)cc2s1)c1ccncc1
i	.	CCOC(=O)C(C)Sc1nc(N)c(NC(=O)c2ccc(OC)c(OC)c2)c(=O)[nH]1 (configuration not stated)
i	>57	CCOC(=O)c1c(C)[nH]c(C(=O)OCC(=O)N2CCc3ccccc32)c1C
i	>57	CCOc1ccc(-n2c(Cc3cc(=O)[nH]c(=O)[nH]3)nnc2SC(C)C)cc1
i	>57	CCOC(=O)CCC(=O)NCc1ccc2[nH]c(C)cc2c1
i	.	O=S(=O)(Nc1nnc(-c2ccccc2)s1)c1ccc(Cl)cc1
i	>57	COc1cc(C(=O)Nc2cnc(NC(=O)C(C)C)cc2C)cc(OC)c1OC
i	>57	O=C(CSc1n[nH]c(-c2ccccc2Br)n1)NC(=O)NCc1ccco1
i	.	CC(CN(C)Cc1ccccc1)OC(=O)C1COc2ccccc2O1 (configuration not stated)
i	>57	Cc1c(Cc2ccccc2)c(=O)oc2c(C)c(OCc3nn[nH]n3)ccc12
i	>57	Cc1nnc(SCC(=O)NCc2ccc3c(c2)OCO3)s1
i	>57	CC(C)c1ccc(NC(=O)CCNS(=O)(=O)c2cccc3nonc23)cc1

Random excerpt: 3 records from the list.
YjeE inh	PK Bst	SMILES
i	>57	O=C(CSc1n[nH]c(-c2ccccc2Br)n1)NC(=O)NCc1ccco1
i	>57	CCOC(=O)CCC(=O)NCc1ccc2[nH]c(C)cc2c1
i	.	O=S(=O)(Nc1nnc(-c2ccccc2)s1)c1ccc(Cl)cc1

(next part)
YjeE inh	PK Bst	SMILES
i	>57	Cc1ccc(C2C(=O)N(C3CCC(C)CC3)CC(=O)N2C2CC2)cc1 (configuration not stated)
i	.	CC1(C)[C@@H](OC(=O)CCC(=O)O)CC[C@@]2(C)[C@H]1CC[C@@]1(C)[C@H]2C(=O)C=C2[C@H]3C[C@](C)(C(=O)O)CC[C@]3(C)CC[C@@]21C
i	>57	Cc1nc2ccc(NC3=NCCCCC3)cc2s1
i	>57	CCN(CC)S(=O)(=O)c1cccc(-c2nnc(SC(C)C#N)n2Cc2ccccc2)c1 (configuration not stated)
i	>57	CC1(C)Oc2ccc(C(=O)N3CCc4ccccc43)cc2N(CC(=O)N2CCCC2)C1=O
i	.	COCc1nc(-c2ccc(-c3ccc(OC)cc3)nc2OC)no1
i	>57	C(=N\n1cnnc1)/c1ccc(N2CCOCC2)s1
i	>57	O=C(CN1C(=O)c2ccccc2C1=O)N1CCN(c2ccccc2)CC1
i	.	Oc1ccccc1O
i	>57	CC1(C)SC2c3ccccc3C(=O)N2[C@@H]1C(=O)NCCCN1CCOCC1 (some centres not stated)
i	.	CC1=NC(Nc2nc(C)c3ccccc3n2)=NC(C)(C)C1
i	?	CC(C)C(NC(=O)C1CCCCC1)C(=O)Nc1ccc2c(c1)OCCO2 (configuration not stated)
i	>57	CC1=C(C(=O)OCc2ccccc2)C(c2cccnc2)n2ncnc2N1 (configuration not stated)
.	>26	Cc1ccc(N2C(=O)C3ON(c4ccccc4)C(c4ccncc4)C3C2=O)cc1 (configuration not stated)
i	?	O=S(=O)(c1ccc(Cl)cc1Br)N1CCCCC1
i	>57	Cn1c(=O)c2c(nc(SCC(=O)Nc3ccccc3N3CCCCC3)n2C)n(C)c1=O
i	>57	O=C(CN1CCCC1)N1c2ccccc2Sc2ccccc21
.	>11	O=c1c2ccccc2ncn1Cc1ccco1
i	>57	Cc1ccc(OCCC(=O)Nc2c(C)n(C)n(-c3ccccc3)c2=O)cc1
i	.	CCCc1cc(=O)oc2cc(C)cc(OCc3nn[nH]n3)c12
i	>57	CCOc1ccccc1OCCCC(=O)N1CCN(S(=O)(=O)c2ccc(C)cc2)CC1
i	>57	CCN(CC)c1ccc(C2C3CCCCC3(O)CCN2CC(=O)N2CCCCC2)cc1 (configuration not stated)
i	>57	Cc1cc(Nc2nc3ccccc3[nH]c2=O)n(-c2ccccc2)n1
i	>57	Cc1ccc(NC(=O)CS(=O)CC(=O)NC(C)CCc2ccco2)cc1Cl (configuration not stated)
i	.	Cn1c(=O)c2c(nc(NCCNc3nc4c(c(=O)n(C)c(=O)n4C)n3C)n2C)n(C)c1=O
i	>57	COc1ccc(OC)c(-c2cc(C(=O)N3CCCc4ccccc43)no2)c1
i	.	COC(=O)c1[nH]c2cc(C)ccc2c1NC(=O)CN1CCN(c2ccccc2OC)CC1
i	>57	CCn1c(SCC(=O)Nc2nonc2C)nnc1-c1ccoc1C
i	.	O=C(COc1ccc(Cl)cc1Cl)NCc1ccco1
i	>57	O=C(c1cnn2c(C(F)F)cc(C3CC3)nc12)N1CCc2ccccc2C1
i	>57	c1ccc(C2(c3ccccc3)OCC(Cn3cncn3)O2)cc1 (configuration not stated)
i	.	CC(=O)c1cccc(NC(=O)c2cc(C)no2)c1
i	.	C[C@H](NCCc1ccc(O)cc1)[C@@H](O)c1ccc(O)cc1
i	>57	C=CCn1c(N)c(-c2nc3ccccc3n2C)sc1=S
i	.	Cc1ccc(OCC(=O)Nc2cccc(C)n2)c(C)c1
i	.	Cc1cc(OCC(=O)NCCCN(C)C)cc(C)c1Br
i	>57	Cc1c(C(=O)NCc2cccnc2)oc2c1C(=O)CC(C)(C)C2
i	>57	O=C(Nc1ccccc1)N1CCN(c2nc3ccccc3s2)CC1
i	>57	Cc1ccc(Cl)cc1N(CC(=O)NC1CCCCC1)S(C)(=O)=O
i	.	COc1ccc(Oc2ncc3nc(-c4ccc(F)cc4)c(=O)n(CCC#N)c3n2)cc1
i	>57	CCC(=O)N1CCc2cc(S(=O)(=O)CCC(=O)NCc3ccc4c(c3)OCO4)ccc21
i	>57	Cc1cc(C)c(NC(=O)CN2CCN3CCCC3C2)c(C)c1 (configuration not stated)
i	>57	CCC(C)(C)NC(=O)C(c1ccccc1F)N(Cc1ccco1)C(=O)Cn1nnc2ccccc21 (configuration not stated)
i	.	Nc1ccc(S(=O)(=O)Nc2cnc3ccccc3n2)cc1
i	.	COc1ccccc1-n1c2c(cc(C(=O)N3CCC(C)CC3)c1=O)C(=O)CC(C)(C)C2
i	.	C[C@H](CC(=O)O)C(C(=O)O)C(=O)O
.	>26	COC(=O)c1cc(Br)c(=O)n(Cc2ccco2)c1
i	.	CN(C)CCN(Cc1cccs1)c1ccccn1
i	.	Cc1ccc(S(=O)(=O)/N=C/c2ccco2)cc1
i	.	Nc1c(N2CCN(c3ccccc3)CC2)c2ccccc2oc1=O
i	>57	Cc1cc(C)n(-c2nc(NCc3cccnc3)c3c4c(sc3n2)COC(C)(C)C4)n1
i	>57	COc1ccc(NC(=O)CSc2nc(NS(=O)(=O)c3ccccc3)cc(=O)[nH]2)cc1
i	.	CCC1CCc2c(sc(NC(=O)c3ccoc3C)c2C(N)=O)C1 (configuration not stated)
i	>57	CN(CC(=O)Nc1ccccc1Cl)C(=O)COC(=O)CNC(=O)c1ccc(Br)o1
i	.	N#CCCN1CCN(S(=O)(=O)c2ccc(S(=O)(=O)NC3CCCC3)cc2)CC1
i	.	NC1(C(=O)O)C[C@@H](C(=O)O)[C@H](C(=O)O)C1
i	i	CCOc1ccc2nc(N3CCCCCC3)sc2c1
i	>57	Cc1c(N2C(=O)c3ccccc3C2=O)c(=O)n(-c2ccccc2)n1C
i	>57	CN(C)C(=O)c1ccc(NC(=O)c2cccnc2)cc1
i	>57	Cc1ccc(C)c(/C(O)=C2/C(=O)C(=O)N(CCN3CCOCC3)C2c2ccco2)c1 (configuration not stated)
i	>57	O=C(CN1CCN(c2ncccn2)CC1)Nc1ccccc1-n1cccc1
.	>11	C/C(CC1(O)C(=O)N(Cc2ccccc2)c2ccccc21)=N\O (configuration not stated)
i	>57	CCOc1cc(C(=O)Nc2cc(C)ccn2)cc(OCC)c1OCC
